H5N1 antiviral: MDCK cell protection from H5N1 avian flu | cytopathic effect, luminescence, 72 h; hits give high values; no value below 0 was filed and about half of the inactive calls have no number; reference of the scale not given here | inhibition, % at 50 µM | hit rate 0.07% among 96,000 | AID 740, 2007; in the data active means inhibition above about 25%
* hit, by the source's call; i = inactive.

SMILES	H5N1 antiviral
CCN(CC)c1ccc(NC(=O)C(C)C)cc1	1.2
O=C(CCCN1C(=O)C2CCCCN2C1=O)N1CCN(c2ccc([N+](=O)[O-])cc2)CC1 (stereo unspecified)	1.2
Cc1cc(=O)n(CNC(=O)c2ccccc2)c(=S)[nH]1	i
COc1ccc(Cn2c(O)cc(=O)[nH]c2=O)cc1	i
CCn1c(Cn2nnc(-c3ccccc3)n2)nnc1SCC(=O)Nc1ccccc1	i
COc1ccc(N2CC(C)Cn3c2nc2c3c(=O)n(CCN3CCOCC3)c(=O)n2C)cc1 (stereo unspecified)	i
O=S(=O)(NCc1csc(-c2cccnc2)n1)c1ccc2c(c1)OCCO2	2.6
Cc1noc(C)c1CSc1nc2ccccc2[nH]1	0.6
COc1ccc(C(C#N)N2CCCCCC2)cc1OC (stereo unspecified)	0.1
O=c1c2ccccc2nc(-c2ccco2)n1-c1ccncc1	i
CCOc1ccc(/C(O)=C2/C(=O)C(=O)N(CCOCCO)C2c2ccccn2)cc1 (stereo unspecified)	i
O=c1[nH]c(C(F)(F)F)nc2ccccc12	0.4
CCOC(=O)c1c(-c2ccc(C)cc2)cn2ccccc12	0.1
O=C(CSc1nnc(Cc2ccccc2)o1)N1CCOCC1	0.5
O=C(NCc1ccc2c(c1)OCO2)C1CC(c2ccccc2O)=NO1 (stereo unspecified)	i
COc1ccc(-c2ccc(-c3noc(-c4cccs4)n3)c(OC)n2)cc1	i
COc1cc(C2CC(=O)N3CN(Cc4ccco4)CSC3=C2C#N)ccc1OCc1ccccc1 (stereo unspecified)	0.4
CC1CCCCC1NC(=O)CSc1nnnn1-c1ccccc1 (stereo unspecified)	i
O=C(Cn1c(=O)[nH]c2ccsc2c1=O)NC1CCCCCC1	0.5
CCOC(=O)C1CCN(Cc2ccc(Cl)c(Cl)c2)CC1	i
CC(C)n1c(C(O)c2ccccc2)nc2ccccc21 (stereo unspecified)	3.9
O=C(CN(Cc1cccs1)C(=O)CNS(=O)(=O)c1ccccc1)NCc1ccco1	i
COCC(=O)Nc1nc(-c2ccccc2)c(C)s1	i
Cn1c(NCCN2CCCCC2)cc(=O)n(C)c1=O	i
CNc1nc(N)c(C(=O)C(C)(C)C)s1	i
CCn1ccc(C(=O)Nc2ccc(N(C)C(C)=O)cc2)n1	1.1
Cc1ccc(-c2noc(CN3C(C)CCCC3C)n2)cc1 (stereo unspecified)	0.5
Cn1c(SCC(=O)NC2CCCC2)nnc1-c1ccc(S(=O)(=O)N2CCOCC2)cc1	1.1
CCCN=Cc1c(CCC)[nH]n(-c2nc3ccccc3s2)c1=O	0.8
Fc1ccc(Br)cc1C1C=C(c2cccnc2)Nc2ncnn21 (stereo unspecified)	0.1
Cc1nnc(SCc2nnc(-c3ccccc3)o2)n(N)c1=O	i
CN1C(=O)c2oc3ccccc3c(=O)c2C1c1ccccn1 (stereo unspecified)	0.6
CCn1c(N2CCN(C(=S)NCC(C)C)CC2)nc2ccccc21	i
Clc1ccc(CN2C3=NCCCN3c3ccccc32)cc1	i
COc1ccc(C(=O)N2CCN(C(=O)CC(C)C)CC2)cc1OC	i
Cc1oc2c(C)c3oc(=O)c4c(c3cc2c1C)CCCC4	2.2
CC(=O)N=c1sccn1CC(=O)c1ccc([N+](=O)[O-])cc1	i
CCOC(=O)c1c(C)n(CC(COC(C)=O)OC(C)=O)c2ccc(OC(C)=O)cc12 (stereo unspecified)	0.9
O=C1CN(C(=O)c2ccco2)c2ccccc2N1	i
CNc1nc2ccccc2n1/N=C/c1cccc(OC)c1OC	0.3
Cc1ccc(CNS(=O)(=O)c2ccc3oc(C(=O)O)c(C)c3c2)cc1	1.0
Cc1ccccc1OCc1nnc2c3cnn(C)c3ncn12	i
O=C(c1ccc(Nc2cccc(C(F)(F)F)c2)nc1)N1CCCC1	i
CC(C)CC(=O)NCC(C)NC(=O)CC(C)C (stereo unspecified)	i
COc1ccccc1NC(=S)Nc1ccccc1F	i
Cc1ccc(C(=O)O/N=C2\CCSc3ccc(C)cc32)cc1	i
COc1cccc(-n2cc3c(c2-c2ccccc2)c(=O)n(C)c(=O)n3C)c1	2.4
O=C(O)Cn1c(SCc2cccc3ccccc23)nc2ccccc21	0.3
CC(=O)c1c(C)[nH]c(C)c1C(C)=O	0.7
C=CCSc1nnc(NC(=O)c2cccc(S(=O)(=O)N3CCOCC3)c2)s1	0.7
(further entries)
SMILES	H5N1 antiviral
COc1ccc(-n2cnnc2SCC(=O)N2CCN(c3ccccc3)CC2)cc1	1.3
CCCOC(=O)NC1C(NC(=O)OCCC)N(C)C(=O)N1C (stereo unspecified)	i
COc1ccc2c(c1)c(C(=O)CNc1nc(C)cs1)c(C)n2C	2.5
CC(C)c1ccc(CN(C(=O)c2cc3ccccc3oc2=O)C2CCS(=O)(=O)C2)cc1 (stereo unspecified)	0.1
CCC(C(=O)N1CCN(S(C)(=O)=O)CC1)c1ccccc1 (stereo unspecified)	0.7
COC(=O)/C(N=Nc1cccc(C(F)(F)F)c1)=C(\C)O	i
CCn1c(C(=O)NC(C)c2ccc3c(c2)OCCO3)cc2sccc21 (stereo unspecified)	i
CCCCCC(=O)Nc1ccc(N2CCN(S(C)(=O)=O)CC2)cc1	1.8
CCOc1ccc(N2C(=O)C3CC(C)=C(C)CC3C2=O)c([N+](=O)[O-])c1 (stereo unspecified)	1.6
Cc1cc2oc(=O)cc(COC(=O)c3n[nH]c4ccccc34)c2cc1C	1.2
COc1cc(/C=C/C(=O)Nc2cc(C(F)(F)F)ccc2Cl)cc(OC)c1OC	i
CN(C)c1cc[n+](CC(=O)Nc2cc(C(F)(F)F)ccc2Cl)cc1	i
CCc1nnc(NC(=O)CCC(=O)NC2CCCCC2)s1	i
O=C(CCSc1nc(-c2ccco2)cc(C(F)(F)F)n1)NCC1CCCO1 (stereo unspecified)	i
C=CCNC(=O)C(C#N)c1nc2ccccc2nc1N1CCN(Cc2ccccc2)CC1 (stereo unspecified)	i
COCC(=O)Nc1ccccc1C(=O)Nc1ccc(OC)cc1	0.3
CCS(=O)(=O)Nc1ccc(C2=NN(C(=O)c3ccco3)C(c3ccc(C)cc3)C2)cc1 (stereo unspecified)	1.2
CCOc1ccc(Nc2nc3c(c(=O)[nH]2)CCCC3)cc1	1.8
CC(C)c1ccc(/C=c2\sc3nc(-c4ccncc4)nn3c2=O)cc1	i
Cc1cc(=O)oc(C)c1C(=O)O	0.2
O=c1cc(-c2c(F)c(F)c(F)c(F)c2F)oc2ccccc12	i
Cc1cc(NCCCn2ccnc2)n2ncc(-c3ccccc3)c2n1	i
CCOC(=O)C1CCN(C(=O)CCCOc2ccccc2)CC1	i
COc1ccc(CNc2oc(-c3cccc4ccccc34)nc2C#N)cc1	i
Clc1ccccc1CSc1ncccn1	i
Cn1c(C(=O)N2CCN(c3ccc(Cl)cc3)CC2)cc2c(=O)[nH]c3ccccc3c21	1.8
CCCC(=O)Nc1ccccc1-c1nnc(SC)[nH]c1=O	0.4
O=C(/C=C/Nc1cccc(C(F)(F)F)c1)c1ccc(Oc2ncccn2)cc1	i
COc1cc(C2NC(=O)NC(c3ccccc3)=C2C(C)=O)ccc1OCC#N (stereo unspecified)	i
CCOC(=O)C(C(C)=O)C(c1ccc(OC)cc1)C(C(C)=O)C(=O)OCC (stereo unspecified)	0.9
O=C(CSc1nc(-c2ccccc2)nn1C(=O)c1ccccc1)Nc1cccc([N+](=O)[O-])c1	0.7
Cc1cccc(NC(=O)c2cc(NC(=O)C3CCCCC3C(=O)O)ccc2Cl)n1 (stereo unspecified)	1.5
CCc1ccccc1NC(=O)c1cc2ncc(Br)cn2n1	0.9
O=C(C1CCCCC1)N(Cc1ccccc1)c1ccccn1	0.4
O=C(CCCSc1nc(-c2ccco2)cc(C(F)(F)F)n1)Nc1ccc2c(c1)OCO2	i
CCOC(=O)N1CCC(NC(=O)Cn2nc(-c3ccccc3)ccc2=O)CC1	i
CN(Cc1ccccc1)c1oc(COc2ccccc2F)nc1C#N	i
COc1ccc(NC(=O)C(CC(C)C)NS(=O)(=O)c2ccc3c(c2)CCN3C(C)=O)cc1OC (stereo unspecified)	1.2
Cc1ccc(C(=O)C2CN(C)CC2C(=O)c2ccc(C)cc2)cc1 (stereo unspecified)	0.6
Nc1nonc1C(=O)NCCNC(=O)c1cccs1	2.1
COC(=O)COc1nc(C)c2c(c1C#N)CC(C)(C)OC2	i
Nc1cc(C(=O)OCC(=O)N2CCCC2)ccc1Cl	i
O=C(Cn1c(O)c(/C=C2\C=Nc3ccc(Br)cc32)sc1=O)N1CCCC1	i
CCC(C)(C)n1nnnc1C(c1cc2cccc(C)c2[nH]c1=O)N1CCCC1 (stereo unspecified)	i
Cc1cc(C(F)F)n2nc(C(=O)Nc3ccc(S(=O)(=O)NC45CC6CC(CC(C6)C4)C5)cc3)nc2n1	i
O=c1cc(CSc2nc3ccccc3[nH]2)c2ccccc2[nH]1	0.5
CCCCn1c(NC(=O)CC)c(C#N)c2nc3ccccc3nc21	2.1
O=C(COC(=O)c1ccccc1)c1ccc(Br)cc1	0.3
CCCC(CCC(=O)Nc1ccc(C(=O)OCC)cc1)C(=O)O (stereo unspecified)	i
COc1ccc(NC(=O)c2sc(NC(=O)COc3ccccc3)nc2C)cc1	i
Next part.
SMILES	H5N1 antiviral
COc1ccccc1C(=O)Nc1ccc(S(=O)(=O)Nc2cc(C)on2)cc1	i
C=CCn1c(SCC(=O)Nc2ccccc2OC)nc(O)c(CC)c1=O	0.8
COc1cc(NC(=O)c2cccs2)c(OC)cc1NC(=O)CCn1nnc2ccccc21	i
CCOC(=O)C1CCCN(C2CC(=O)N(c3ccc(C)cc3)C2=O)C1 (stereo unspecified)	i
CCn1ncc(C2=NOC(C(=O)Nc3cc(OC)c(Cl)cc3OC)C2)c1C (stereo unspecified)	i
COc1ccccc1NC(=O)N1CCCC1C(=O)NCc1ccccc1 (stereo unspecified)	i
O=C(OCc1cnc(Cl)s1)c1ccccc1Cl	i
COCC(=O)N(Cc1cc2cc(OC)ccc2[nH]c1=O)c1ccccc1	1.4
COc1cccc(N2CCN(C3CCCC(C)C3)CC2)c1 (stereo unspecified)	i
O=C(NCCC1=CCCCC1)C1CCN(C(=O)Nc2ccccc2)CC1	0.3
COc1ccc(C(C)NC(=O)C2CCCO2)cc1OC (stereo unspecified)	i
Cc1ccc(Cl)cc1N1CCN(C(=O)c2ccc(CN3CCOCC3)cc2)CC1	i
O=C(O)C1CCCN(S(=O)(=O)c2ccc(Br)cc2)C1 (stereo unspecified)	i
CCOC(=O)c1c(C)n(C)c2cc(OCCN(CC)CC)ccc12	i
OC(COc1c(Br)cc(Br)cc1Br)CN1CCOCC1 (stereo unspecified)	i
CCCCCOC(=O)Cn1c(=O)c2c(nc(N3CCOCC3)n2C)n(C)c1=O	0.2
COC(=O)/C=C/C(=O)Nc1cccnc1	0.2
CCC(=O)Nc1ccc(-c2nnc(-c3ccccc3)o2)cc1	i
COC(=O)c1ccc(N2CCN(C)CC2)c(NC(=O)c2cc3ccccc3o2)c1	0.2
CCOc1ccc(OCC)c(NC(=O)CC2Oc3ccccc3NC2=O)c1 (stereo unspecified)	1.5
O=C(NCc1ccccc1)C1CCCN(C(=O)Nc2ccccc2)C1 (stereo unspecified)	i
C=CCn1c(Cc2ccc(OC(C)C)c(Cl)c2)nnc1SCC(N)=O	0.0
CCCN(CCC)CC(O)CN(c1ccccc1)S(=O)(=O)c1ccc(C)cc1 (stereo unspecified)	i
O=C(CCN1C(=O)C2C3C=CC(C3)C2C1=O)NCCc1ccccc1Cl (stereo unspecified)	0.1
Cc1ccccc1OCCCC(=O)NCc1ccco1	i
Cc1[nH]c(C(=O)O)c(C)c1C(=O)OC(C)C	2.2
CCOc1ccc(N(CC(=O)O)S(=O)(=O)c2ccc(OC)c(OC)c2)cc1	0.6
O=C(C1CC(=O)N(C2CCCC2)C1)N1CCC2(CC1)OCCO2 (stereo unspecified)	0.1
COc1ccc(C(=O)n2nnc3ccccc32)cc1Br	0.8
Cc1cc(NC(=S)NC(=O)CC(C)C)ccc1Br	i
COc1ccc(N(CC(=O)Nc2ccc(S(=O)(=O)N3CCCCC3)cc2)S(C)(=O)=O)cc1OC	0.3
CNC(=O)c1ccc(CNC(=O)OCC(F)(F)F)cc1	i
O=C(Cc1ccccc1)Nc1ccc(N2CCN(Cc3ccccc3F)CC2)cc1	i
COc1ccc(N2CCN(CCC(N)=O)CC2)cc1	i
COCC(=O)OCC(=O)Nc1cc(C(C)(C)C)nn1-c1ccccc1	i

Source: PubChem

The list is partial, so the mix of outcomes need not match the whole.
